EPAC1 agonist: human EPAC1 agonism, validation; O95398; EPAC1 Rap1b BODIPY-GDP exchange, fluorescence; Potency, µM, for inactives: max response, positive = active, usual class: activators; actives 1% (n = 16,000); AID 1645883; active = well fitted activation curve with a large enough effect; inconclusive = small, poorly fitted or top-dose-only effect; inactive = no such curve, though single readings can be large or run the other way;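 note: nearly all actives have a fitted effect of over 70% in size; series mostly up to about 76 or 150 µM; scaled to a cAMP control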
Target sequence (O95398 whole entry, looked up): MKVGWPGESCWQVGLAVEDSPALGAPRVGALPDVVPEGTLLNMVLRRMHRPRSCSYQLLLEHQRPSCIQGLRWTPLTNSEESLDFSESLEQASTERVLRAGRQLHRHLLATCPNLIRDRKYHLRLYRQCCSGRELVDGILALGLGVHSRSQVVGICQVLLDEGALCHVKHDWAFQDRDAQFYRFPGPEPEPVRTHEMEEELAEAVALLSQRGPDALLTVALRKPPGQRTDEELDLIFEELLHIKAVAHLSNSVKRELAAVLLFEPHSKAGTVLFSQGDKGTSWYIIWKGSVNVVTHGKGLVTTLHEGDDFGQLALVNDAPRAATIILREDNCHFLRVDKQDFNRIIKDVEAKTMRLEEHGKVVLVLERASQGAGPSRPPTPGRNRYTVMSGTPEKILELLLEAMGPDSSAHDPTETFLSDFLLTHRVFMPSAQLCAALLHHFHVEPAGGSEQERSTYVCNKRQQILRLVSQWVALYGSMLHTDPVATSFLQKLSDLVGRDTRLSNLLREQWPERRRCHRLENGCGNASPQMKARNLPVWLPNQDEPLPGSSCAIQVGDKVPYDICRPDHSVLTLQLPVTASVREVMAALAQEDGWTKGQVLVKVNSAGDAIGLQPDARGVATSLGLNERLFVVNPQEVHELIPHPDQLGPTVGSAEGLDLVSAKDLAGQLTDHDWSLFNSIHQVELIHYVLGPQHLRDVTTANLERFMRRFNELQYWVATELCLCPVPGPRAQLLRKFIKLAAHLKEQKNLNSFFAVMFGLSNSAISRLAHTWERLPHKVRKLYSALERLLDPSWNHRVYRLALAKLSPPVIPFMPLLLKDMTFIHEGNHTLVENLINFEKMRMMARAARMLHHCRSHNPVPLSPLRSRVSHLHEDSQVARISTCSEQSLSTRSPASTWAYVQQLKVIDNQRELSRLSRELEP
* hit, by the source's call; u = inconclusive; & = joins results of further samples; [ ] = dose if it differs, or a comment. % is set by controls: 0 for no effect and ±100 for the full control effect; potency is the fitted concentration of half-maximal effect. Only part of the results is shown (hit frequency here may not be typical).

SMILES	EPAC1 agonist
CC(C)(C)c1ccc(S(=O)(=O)N[C@H]2CC[C@@H](n3cc(C(=O)N4CCCC4)nn3)CC2)cc1	-12.5%
O=S(=O)(O)Oc1ccc(C(c2ccc(OS(=O)(=O)O)cc2)c2ccccn2)cc1	22.4%
O=C1CCN(Cc2ccccc2)CCN1CCO	-68.2%[inhibitor]
O=C(NCc1ccncc1)c1cnn(-c2ncc3c(n2)-c2ccccc2CC3)c1C1CC1	1.1%
COc1ccccc1-c1cc(Nc2ccc(F)cc2)ncn1	-10.6%
COc1ccc(-c2nc3cnc(OC)nc3n(Cc3ccc(F)cc3)c2=O)cc1	-45.5%[inhibitor]
CCC1C(=O)NCCN1Cc1ccc2c(c1)CN(Cc1cc(OC)c3c(c1)OCO3)CCO2 (stereo not drawn)	3.8%
Cc1cc(C(=O)Nc2ccccc2-c2nc(CNC(=O)c3cc4ccccc4cn3)c(C)o2)c(C)o1	1.4%
Cc1cc(C(C)(C)C)c(O)c(C(C)(C)C)c1	-22.2%&-27.1%
COc1ccc(SC[C@H](C)CN2CC[C@H](NC(=O)OCc3ccccc3)CCC2=O)cc1	-12.1%
CS(=O)(=O)Nc1c(O)ccc2c1CCC[C@H]2C1=NCCN1	-14.7%
CC(=O)N[C@@H](CS)C(=O)O	9.8%&-9.0%
COc1cc(CNC(=O)c2cnn(-c3ncc4c(n3)-c3ccccc3CC4)c2C)cc(OC)c1OC	9.9%
CCNc1ncc2nc(-c3ccc(OC)cc3)c(=O)n(CCc3ccccc3)c2n1	-9.4%
COc1ccc(Oc2ncc3ncc(=O)n(Cc4cccs4)c3n2)cc1	u
Cn1ccc2cc(NC(=O)Nc3cccnc3)ccc21	-8.6%
CC(C)(S)[C@H](N)C(=O)O	14.2%
CC(C(=O)O)c1ccc(C2CCCCC2)c2ccccc12 (stereo not drawn)	5.8%
O=C1NC(c2cccc([N+](=O)[O-])c2)=CCN1c1ccccc1O	-8.4%&8.9%
CC(C)C[C@@H](CO)N(Cc1ccccc1)S(=O)(=O)N(Cc1ccccc1)[C@@H](CO)CC(C)C	-46.9%[inhibitor]
COc1cc(S(C)=O)ccc1-c1nc2ncccc2[nH]1 (stereo not drawn)	-22.9%
Cc1nc2cnc(N(C)C)nc2n(C[C@H]2CCCO2)c1=O	-30.7%[inhibitor]
O=C(c1cccc(F)c1)N1CCC2(CC1)CN(c1ncccn1)C2	12.8%
CCCCC[C@H](O)/C=C/[C@@H]1[C@@H](C/C=C\CCCC(=O)O)[C@@H](O)C[C@H]1O	-1.1%&5.8%
COc1ccc2[nH]cc(CCNc3ncnc4ccc(-c5c(C)noc5C)cc34)c2c1	5.1%
Cc1noc(C)c1C(=O)N1CCC2(CCN(Cc3ccccc3)CC2)CC1	-8.4%
O=c1c(O)c(-c2ccc(O)c(O)c2)oc2cc(O)ccc12	-9.3%&20.3%
COc1ccc(CNc2ncnc3ccc(-c4cccc(NS(C)(=O)=O)c4)cc23)c(OC)c1	u
COc1ccc2[nH]c(=O)c3c(c2c1)OC(C)(C)C=C3	-45.0%&-0.3%[inhibitor]
O=C(Nc1ccccc1)N1CC2(CCN(S(=O)(=O)c3ccccc3)CC2)C1	-52.4%[inhibitor]
COc1cccc(CN2CCC3(CC2)c2ccccc2[C@@H](NC(=O)c2ccccc2)[C@@H]3O)c1O	-19.4%
CC(C)(C)CC(C)(C)N=C1Nc2cc(Cl)c(Cl)cc2N[C@]12C[C@H]1CCCC(=O)N3CC[C@@H](C2)[C@@H]13	-11.8%
O=C(Cc1cccs1)N[C@@H]1C(=O)N2C(C(=O)[O-])=C(C[n+]3ccccc3)CS[C@H]12	u
NC[C@@H]1O[C@H](O[C@H]2[C@@H](O)[C@H](O[C@@H]3[C@@H](O)[C@H](N)C[C@H](N)[C@H]3O[C@H]3O[C@H](CO)[C@@H](O)[C@H](O)[C@H]3N)O[C@@H]2CO)[C@H](N)[C@@H](O)[C@@H]1O	-12.7%
COc1ccc(C(=O)C2C3C4COC(O4)C(=O)C3C3C=Cc4ccccc4N32)c(OC)c1 (stereo not drawn)	14.3%
CN(C)Cc1ccccc1-c1ccc2ncnc(N(C)C)c2c1	2.4%
CC(C)NC(=O)N1CC2(CCN(S(=O)(=O)c3ccccc3)CC2)C1	14.8%
O=c1[nH]cnc2c1ncn2C1CC(O)C(CO)O1 (stereo not drawn)	-46.7%[inhibitor]
CN(C)C1C(=O)C(C(N)=O)=C(O)[C@@]2(O)C(=O)C3=C(O)c4c(O)ccc(Cl)c4C(O)[C@H]3C[C@@H]12 (stereo partly drawn)	19.0%
COc1ccc(-n2c(=O)c(-c3ccccc3)nc3cncnc32)cc1	-34.3%[inhibitor]
Oc1cc(-c2nc3ccccc3s2)cc2c1OCCN(Cc1cn[nH]c1-c1ccc(Cl)cc1)C2	-3.5%
COCC(=O)N1CCC[C@@]2(CCN(c3ccccn3)C2)C1	-22.5%
O=C1CCC(c2ccccc2)(C2CCN(Cc3ccccc3)CC2)C(=O)N1 (stereo not drawn)	-15.9%&-31.1%
Cc1cccc(C)c1NC(=O)CN1CCCCCC1	-1.2%
OCC1OC(n2cnc3c(=S)nc[nH]c32)C(O)C1O (stereo not drawn)	u
O=C(c1cccc(F)c1)N1CCC2(CC1)CCN(c1ccncc1)CC2	-59.1%[inhibitor]
COC(=O)[C@H]1[C@H]2C[C@@H]3c4[nH]c5cc(OC)ccc5c4CCN3C[C@H]2C[C@@H](OC(=O)c2cc(OC)c(OC)c(OC)c2)[C@@H]1OC	u
CCCc1nn(C)c2c(=O)[nH]c(-c3cc(S(=O)(=O)N4CCN(C)CC4)ccc3OCC)nc12	4.0%&0.8%
C[C@@](N)(C(=O)O)c1ccc(C(=O)O)cc1	-16.9%&-14.9%&-0.1%
c1ccc2[nH]c(-c3cscn3)nc2c1	-30.9%&17.6%[inhibitor]
CN1CCN(c2ncc3nc(-c4cccs4)c(=O)n(Cc4cccs4)c3n2)CC1	-12.1%
CC(C)(Oc1ccc(C2CC2(Cl)Cl)cc1)C(=O)O (stereo not drawn)	9.4%&-32.5%
CCNc1ncc2nc(-c3cccc(C#N)c3)c(=O)n(C)c2n1	14.3%
COC1C(O)CC(=O)OC(C)C/C=C/C=C/[C@@H](OC2CCC(N(C)C)C(C)O2)C(C)C[C@@H](CC=O)[C@@H]1O[C@H]1OC(C)[C@H](O[C@@H]2C[C@@](C)(O)C(O)C(C)O2)C(N(C)C)C1O (stereo partly drawn)	28.2%
Cc1ncc2c(c1CNC(=O)c1cncs1)CCN(C(=O)c1ccc(C(F)(F)F)cc1)C2	-8.3%
CCCCCc1ccc(-c2cn(Cc3ccc4c(c3)C(=O)c3ccccc3C4=O)nn2)cc1	u
N#Cc1ccc(CN2CCC3(CC2)CCN(S(=O)(=O)c2ccccc2)CC3)cc1	2.2%
CN(C)C(=O)[C@@H]1C[C@@H](Sc2nc3ccccc3[nH]2)CN1Cc1ccnc2ccccc12	-7.1%
c1ccc(OCc2ccc(CCCN3CCOCC3)cc2)cc1	-2.6%
COc1ccc(-n2c(=O)c(-c3ccc(F)c(F)c3)nc3cncnc32)cc1	-22.0%

Next results follow.
SMILES	EPAC1 agonist
O=C(NC[C@@H]1CCCN2CCCC[C@H]12)c1cnn(-c2nccc(-c3cc4ccccc4o3)n2)c1C1CC1	-5.2%
COC(=O)N1CCC2(CC1)CN(C(=O)Nc1cccc(F)c1)C2	21.2%
Cc1cccc2c(N3CCCC3)nc(CNS(=O)(=O)c3ccccc3F)nc12	5.4%
Cc1ccccc1-c1cc(N2CCNCC2)ncn1	-41.7%[inhibitor]
C[N+]1(CC2COC(c3ccccc3)(c3ccccc3)O2)CCCCC1 (stereo not drawn)	1.4%
CN1CCN(c2nc(-c3ccc4c(c3)OCO4)nc3ccccc23)CC1	-10.6%
CC(=O)OC1C[C@]2(C)[C@@H](CC(O)C3[C@]4(C)CCC(O)C(C)[C@@H]4CC[C@]32C)/C1=C(/CCC=C(C)C)C(=O)O (stereo partly drawn)	-27.4%
COCC(=O)N1CCC[C@@]2(CCN(Cc3cc(C(F)(F)F)cc(C(F)(F)F)c3)C2)C1	-69.4%[inhibitor]
c1ccc(CC[n+]2ccncc2)cc1	-5.5%
Cc1ccc(-c2cc(C(F)(F)F)nn2-c2ccc(S(N)(=O)=O)cc2)cc1	25.9%&-16.6%
CC(N)CCCC(C)(C)O (stereo not drawn)	-23.2%
COc1cc(-c2noc(C)c2C#Cc2nccn2C)cc(OC)c1OC	-5.6%
Cc1c(C(=O)NCc2nccs2)cnn1-c1ncc2c(n1)-c1ccccc1CC2	-1.3%
Cn1cccc1C(=O)N1CCC2(CCCN(C(=O)Nc3cccc(C#N)c3)C2)CC1	-68.0%[inhibitor]
CCCC(=O)Nc1nc2c(ncn2[C@@H]2O[C@H]3COP(=O)(O)O[C@@H]3[C@@H]2OC(=O)CCC)c(=O)[nH]1	-5.1%
O=C(O)C[C@@H]1NC(=O)[C@H](Cc2ccccc2)NC1=O	-15.8%
c1cc2cc(-c3c(-c4ccc5c(c4)OCO5)noc3-c3ccsc3)ccc2[nH]1	u
COc1ccccc1CCn1c(=O)c(CCc2ccccc2)nc2cncnc21	u
O=C(C[N+]12CCCc3cccc(c31)CCC2)c1ccc2ccc3cccc4ccc1c2c34	-46.1%[inhibitor]
CN(C)C(=O)c1ccc(-c2cncnc2NC2CCNCC2)cc1	1.9%

Sorted by heavy-atom count (smallest number first): some entries from above.
SMILES	EPAC1 agonist
CN(C)C(=O)c1ccc(-c2cncnc2NC2CCNCC2)cc1	1.9%
Cc1cccc2c(N3CCCC3)nc(CNS(=O)(=O)c3ccccc3F)nc12	5.4%
O=C(NC[C@@H]1CCCN2CCCC[C@H]12)c1cnn(-c2nccc(-c3cc4ccccc4o3)n2)c1C1CC1	-5.2%

(next part)
SMILES	EPAC1 agonist
CC(CCC(=O)O)C1CCC2C3CC[C@H]4CC(O)CC[C@@]4(C)C3C=C[C@]12C (stereo partly drawn)	-19.2%
CC(C)[C@H]1COCCS(=O)(=O)N1Cc1ccccc1	-83.5%[inhibitor]
COc1ccccc1C(=O)N[C@@H]1c2ccccc2C2(CCN(Cc3nc(C(C)C)cs3)CC2)[C@H]1O	12.9%
CC(=O)N1CCC2(CCN(Cc3ccc(C#N)cc3)CC2)CC1	-52.1%[inhibitor]
O=c1c(-c2ccc(O[C@@H]3O[C@H](CO)[C@@H](O)[C@H](O)[C@H]3O)cc2)coc2cc(O)cc(O)c12	2.1%
COC(=O)N1CCC2(CCN(Cc3ccccc3OC)CC2)CC1	-40.9%[inhibitor]
CN(Cc1cnc2ccccn12)C(=O)c1cc(NC(=O)c2ccccc2)cc2ncn(C3CCCC3)c12	23.6%
C#C[C@]1(O)CC[C@H]2[C@@H]3CCC4=C(CCC(=O)C4)[C@H]3CC[C@@]21C	-16.1%
O=C(c1csnn1)N1CCC2(CC1)CCN(c1ccccn1)CC2	-38.0%[inhibitor]
c1ccc(C(c2ccccc2)N2CCCC3(CCNCC3)C2)cc1	-65.8%[inhibitor]
CCC(=O)N[C@@H]1c2ccccc2C2(CCN(Cc3cnc(N(C)C)s3)CC2)[C@H]1OC	5.5%
COC(=O)/C=C/c1ccc2c(c1)S(=O)(=O)N(c1cccc(OC)c1)[C@H]2CC(=O)OC	25.6%

In the list so far, these contain a halogen.
SMILES	EPAC1 agonist
COc1ccccc1-c1cc(Nc2ccc(F)cc2)ncn1	-10.6%
COc1ccc(-c2nc3cnc(OC)nc3n(Cc3ccc(F)cc3)c2=O)cc1	-45.5%[inhibitor]
O=C(c1cccc(F)c1)N1CCC2(CC1)CN(c1ncccn1)C2	12.8%
CC(C)(C)CC(C)(C)N=C1Nc2cc(Cl)c(Cl)cc2N[C@]12C[C@H]1CCCC(=O)N3CC[C@@H](C2)[C@@H]13	-11.8%
CN(C)C1C(=O)C(C(N)=O)=C(O)[C@@]2(O)C(=O)C3=C(O)c4c(O)ccc(Cl)c4C(O)[C@H]3C[C@@H]12 (stereo partly drawn)	19.0%
Oc1cc(-c2nc3ccccc3s2)cc2c1OCCN(Cc1cn[nH]c1-c1ccc(Cl)cc1)C2	-3.5%
O=C(c1cccc(F)c1)N1CCC2(CC1)CCN(c1ccncc1)CC2	-59.1%[inhibitor]
CC(C)(Oc1ccc(C2CC2(Cl)Cl)cc1)C(=O)O (stereo not drawn)	9.4%&-32.5%
Cc1ncc2c(c1CNC(=O)c1cncs1)CCN(C(=O)c1ccc(C(F)(F)F)cc1)C2	-8.3%
COc1ccc(-n2c(=O)c(-c3ccc(F)c(F)c3)nc3cncnc32)cc1	-22.0%
COC(=O)N1CCC2(CC1)CN(C(=O)Nc1cccc(F)c1)C2	21.2%
Cc1cccc2c(N3CCCC3)nc(CNS(=O)(=O)c3ccccc3F)nc12	5.4%
COCC(=O)N1CCC[C@@]2(CCN(Cc3cc(C(F)(F)F)cc(C(F)(F)F)c3)C2)C1	-69.4%[inhibitor]
Cc1ccc(-c2cc(C(F)(F)F)nn2-c2ccc(S(N)(=O)=O)cc2)cc1	25.9%&-16.6%

Bioassay records: PubChem BioAssay, National Center for Advancing Translational Sciences (NCATS)
